Screening results from PubChem.
NPYLR7 ag = mosquito NPYLR7 agonism; HEK293T NPYLR7/Galpha15, GCaMP6s calcium fluorescence; activation, % at 10 µM; 270,000 tested, 0.15% active; AID 1259423; in the data active = activation above about 40%;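 note: 0% = vehicle and 100% = reference agonist at the receptor; some compounds past the cut are filed as inactive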
NPYLR7 ag max-min = recorded beside NPYLR7 ag, whose call it bears; activation, %; measured here: Max-Min RFU normalised activation; some inactives read as strong as hits;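 span of the calcium signal over five minutes; 0% = vehicle and 100% = native peptide agonist; compound fluorescence can raise it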
* marks the source's active call; other numbers are inactive results; & = joins results of further samples.

Every second line gives: NPYLR7 ag, NPYLR7 ag max-min
> Cn1nnnc1SCCNC(=O)c1cnc(-c2ccccc2)nc1
  7.8, -5.0
> O=C(NS(=O)(=O)c1cccc(Cl)c1)c1ccccn1
  -1.1&2.4, -2.2&0.7
> CC(C)c1ccccc1NC(=O)C1CC1(c1ccccc1)c1ccccc1 (stereo not given)
  -14.5, -22.2
> COC(=O)C1=C(C)OC(=N)C(C#N)C1c1cccnc1 (stereo not given)
  3.5, 3.3
> N#CCOc1ccc(CNc2ncc(Br)cn2)cc1
  0.8&12.6, -1.3&8.6
> COCc1noc(-c2ccc(N3CCC(COC)C3)nc2)n1 (stereo not given)
  3.3, -0.6
> COc1ccc2oc(=Nc3ccccc3F)c(-c3nc4ccccc4[nH]3)cc2c1
  -4.0, -6.8
> CCOC(=O)C(c1cc(OC)ccc1OC)C1C=CC(NC(=O)/C=C/c2ccccc2Cl)C1 (stereo not given)
  24.8, 24.6
> COc1ccc(Cl)cc1NC(=O)/C(C#N)=C/c1coc2ccc(C)cc2c1=O
  49.6*, 69.1*
> Cc1ccccc1CC(C)NC(=O)C1CCN(c2ncccn2)CC1 (stereo not given)
  3.6, -0.1
> CN1CCN(c2c(S(=O)(=O)c3ccc(Cl)cc3)cnc3ccc(F)cc23)CC1
  7.5, 6.4
> c1ccc(COc2nsnc2N2CCOCC2)cc1
  7.6, 4.5
> O=C(NC(CCn1cncn1)c1ccccc1)c1cc(COc2ccccc2)on1 (stereo not given)
  0.8, -3.1
> CCOC(=O)c1nc2ccccc2nc1N1CCN(C(=O)COC(C)=O)CC1
  10.0, 3.5
> CC(=O)NC1(C(F)(F)F)N=C(c2ccc(C)cc2)NC1=O (stereo not given)
  10.8, 1.0
> O=C(C1CCN(Cc2cnc3ccccn23)CC1)N1CCCC(O)C1 (stereo not given)
  0.4, 18.3
> COc1cccc(Cn2c3c(cc(-c4ccncc4)c2=O)CN(C(=O)C(C)N2CCOCC2)CC3)c1 (stereo not given)
  7.9, -6.3
> COc1cccc(CSc2nnc(C(C)NC(=O)NC(C)(C)C)n2-c2ccc(C)cc2)c1 (stereo not given)
  10.1, 16.4
> CCOC(=O)c1c(NC(=O)c2cccs2)sc(C(=O)Nc2cc(C(F)(F)F)ccc2Cl)c1C
  -5.6, 6.8
> O=C(c1ccc(OC2CCN(C(=O)C3CC3)CC2)cc1)N(CCO)Cc1ccccc1
  8.5, 13.0
> COc1ccc2c(c1)-c1c(sn(-c3ccccc3)c1=S)C(C)(C)N2
  3.3, 1.2
> Cc1cc(C(=O)CSc2n[nH]c(-c3cccs3)n2)c(C)n1-c1nccs1
  2.2, 3.2
> Cc1cccc(-n2c(CNC(=O)c3cccc4ccccc34)n[nH]c2=S)c1
  -5.5, -9.7
> O=C1CCC(C(=O)N2CCC(Cn3cccn3)CC2)CN1CCCN1CCOCC1 (stereo not given)
  21.2, 10.1
> COc1ccc(OC2CCN(C3CCCC3)CC2)c(C(=O)NC(C)Cc2cnccn2)c1 (stereo not given)
  -0.6, -2.2
> O=C(c1ccc2c(c1)OCCO2)N(Cc1cccnc1)c1nc2ccc(Cl)cc2s1
  -4.9, 2.2
> Clc1ccccc1Nc1cc2c(cn1)ncn2CC1CC1
  0.2, 4.4
> CCOC(=O)[C@@H]1[C@@H](OC)C(=O)N(C)C12CCN(C(=O)C1CC1)CC2
  17.7, 17.4
> C=CCSc1nc(N2CCOCC2)c2c(c1C#N)CCCC2
  2.0, -0.3
> COc1ccc(Nc2oc(-c3ccc(COc4ccc(OC)cc4)o3)nc2C#N)cc1
  1.5, 5.2
> CCNC(=O)c1cccc(CNC(=O)C(C)(O)Cc2ccccc2)c1 (stereo not given)
  0.2, 36.6
> O=c1cc(CSc2ncn[nH]2)nc2ccc(Br)cn12
  11.6, 17.3
> O=C(C1=CCCC1)N1CCCC(Nc2ccc3c(c2)OCCO3)C1 (stereo not given)
  10.8, 2.2
> COc1ccc(OC)c(C2CCCN2C(=O)CSc2nncn2-c2ccccc2OC)c1 (stereo not given)
  2.8, 9.4
> CC(=O)N(c1cccc(Cl)c1)c1nc(COC(=O)c2cnn(C)c2C)cs1
  2.7, 0.8
> O=C(NCc1cccnc1)c1cc(=O)c(OCc2ccc(F)cc2)co1
  -0.9, -1.5
> CCN(CC)CCNC(=O)c1ccc(-c2cc(-c3ccc(Cl)cc3Cl)[nH]n2)cc1
  4.0, -3.2
> COc1ccc(S(=O)(=O)N2CCCC(C)C2)cc1N1CCN(C(=O)c2ccc(Cl)c(Cl)c2)CC1 (stereo not given)
  21.5, 14.1
> COc1ccc(CC2CN(C(=O)CCc3ccncc3)CCO2)cc1 (stereo not given)
  2.9, 2.6
> CCCCc1ccc(-c2ccc(-n3cncc3C(=O)NCc3ccccc3Br)cc2)cc1
  0.2, 10.2

The listing continues:
| Compound | NPYLR7 ag | NPYLR7 ag max-min |
| --- | --- | --- |
| O=C(CC(c1ccc(Cl)c(Cl)c1)c1c[nH]c2ccccc12)NCCc1ccc(Cl)cc1Cl (stereo not given) | 12.0 | 14.2 |
| COc1cccc(-c2nc3nc(C)cc(C)n3c2NC2CCCCC2)c1 | 24.6 | 22.8 |
| CNC(=O)C(C)S(=O)(=O)Cc1cc(C)ccc1C (stereo not given) | 1.3 | 1.2 |
| CCOCCN1CCN(C(C)C(=O)Nc2cc(C)on2)CC1 (stereo not given) | 5.2 | 3.1 |
| CC(=O)N1CCN(c2ncnc3c2nnn3-c2cccc(F)c2)CC1 | -10.4 | -21.6 |
| C=CC(C)(O)CN(Cc1c(-c2ccccc2)nn(C)c1Oc1ccccc1F)CC1CC1 (stereo not given) | -3.0 | -3.0 |
| Cc1ccc(C)c(-n2cc(CN(C)Cc3cn(C)nc3C)c(-c3ccccc3)n2)c1 | 1.8 | -1.0 |
| O=C(CCc1ncc(-c2ccc(Cl)cc2)o1)N1CCN(S(=O)(=O)c2ccccc2)CC1 | -5.4 | -7.1 |
| CCn1cc(CNC(=O)c2ccc(OC3CCN(S(=O)(=O)N(C)C)CC3)cc2)cn1 | 1.7 | -3.8 |
| C=CCNCc1csc(COc2c(OC)cccc2OC)n1 | 32.3 | 33.0 |
| CC1(Cc2ccc(C(F)(F)F)nc2)C(=O)Nc2ccc(-c3ccc(F)c(Cl)c3)cc21 (stereo not given) | -3.0 | 3.2 |
| CCCc1nnc(-c2cc3ccccc3n2CC(=O)Nc2ccc(C(N)=O)cc2)o1 | -5.3 | -5.4 |
| CN(C)CC1(O)CCCN(c2nnnn2-c2ccccc2)CC1 (stereo not given) | 3.7 | 0.8 |
| O=C1CCC2(CCN1)CCN(C(=O)C/C=C/c1ccccc1)CC2 | 32.8 | 23.0 |
| CC(Oc1ccccc1F)c1n[nH]c(=S)o1 (stereo not given) | 4.7 | 9.4 |
| c1ccc(-c2ccc(CNc3ncn[nH]3)o2)cc1 | -6.0 | -14.0 |
| O=C(CCc1c[nH]c2ccccc12)NCCc1n[nH]c2c1CCCC2 | 3.9 | -7.5 |
| CN(CC(=O)NCC1(N2CCSCC2)CCCC1)C(=O)OC(C)(C)C | 2.2 | 1.8 |
| N#Cc1ccc(NC(=O)N(CC(=O)N(CCc2c[nH]c3ccccc23)Cc2ccc(C(F)(F)F)cc2)C2CC2)cc1 | -1.4 | -7.5 |
| Cc1ccc(OC2(C(=O)N(C)Cc3nncn3C(C)C)CCNCC2)cc1 | 9.8 | 9.7 |
| Cc1cccc(OCCCn2c(=O)oc3ccccc32)c1 | 8.1 | 13.3 |
| CCN1CCN(C(=O)CCN(c2nc(-c3cccs3)nc3ccccc23)C2CCCCC2)CC1 | 3.7 | 16.1 |
| CC(=O)C(C)n1c(=O)c2c(nc3n(-c4cc(C)ccc4C)c(C)cn23)n(C)c1=O (stereo not given) | -1.5 | 9.9 |
| COc1ccc(NC(=O)N(Cc2ccccc2)Cc2ccc(OS(C)(=O)=O)cc2)c(OC)c1 | 9.0 | 10.7 |
| COc1ccccc1NC(=O)CC(C)NC(C)c1ccco1 (stereo not given) | -0.3 | -1.4 |
| Cc1ccc(C(=O)N2CC(C(=O)NC3CC3)C(c3cccc(C(F)(F)F)c3)C2)cc1 (stereo not given) | 24.3 | 16.2 |
| Cc1nc(Nc2ccc(NC(=O)c3ccccc3C(F)(F)F)cc2)cc(-n2cccn2)n1 | -6.2 | -12.0 |
| COc1cccc(CN(CC2CC(c3ccccc3Cl)=NO2)C(=O)c2cccc(F)c2)c1 (stereo not given) | 3.2 | 10.5 |
| COc1cccc(C(=O)NC(C(=O)N2CCOCC2)C2CCN(C(=O)c3ccc(F)cc3)CC2)c1 (stereo not given) | 1.6 | 0.2 |
| O=C(NCCNc1cccc(C(F)(F)F)n1)c1ccc(O)cc1 | 0.9 | 2.1 |
| CC(C)(C)c1oc(C(N)=O)cc1CN1C[C@H]2C[C@H](O)[C@@H](O)C[C@H]2C1 | 7.0 | 5.3 |
| Cc1cc(C)n(-c2ccc(C(=O)NCCCc3ccccc3)cc2)n1 | -9.8 | -11.6 |
| COc1cccc(-c2nc(OC)nn2-c2cccc(NC(=O)c3cccs3)c2)c1 | 28.0 | 36.4 |
| CCOc1ccc(-c2ccc(C)c(NS(=O)(=O)c3ccc(NC(=O)CC)cc3)c2)nn1 | 1.0 | 3.3 |
| O=C(CCCOc1ccccc1Br)NC1CS(=O)(=O)c2ccccc21 (stereo not given) | -1.1 | -2.0 |
| CC1(Cc2cccc(F)c2)C(=O)Nc2ccc(S(=O)(=O)NC3CCCCC3)cc21 (stereo not given) | 0.3 | -3.4 |
| COc1ccc(NC(=O)NC(C)c2cc(C)sc2C)cc1 (stereo not given) | 6.7 | 4.2 |
| COC(=O)c1ccc(OCC(O)CN2C(=O)c3ccccc3C2=O)cc1 (stereo not given) | 7.1 | 8.9 |
| Cc1cc(C)n(C(=O)c2sccc2S(=O)(=O)N(C)c2ccc(F)cc2)n1 | -0.6 | -5.3 |
| Cc1nc2sc(C)c(C)n2c(=O)c1NC(=O)c1ccccc1C(F)(F)F | 19.4 | 12.0 |

Some of the entries so far, field by field.
> COc1ccc(NC(=O)NC(C)c2cc(C)sc2C)cc1 (stereo not given)
  NPYLR7 ag = 6.7 | NPYLR7 ag max-min = 4.2

> COC(=O)c1ccc(OCC(O)CN2C(=O)c3ccccc3C2=O)cc1 (stereo not given)
  NPYLR7 ag = 7.1 | NPYLR7 ag max-min = 8.9

> Cc1cc(C)n(C(=O)c2sccc2S(=O)(=O)N(C)c2ccc(F)cc2)n1
  NPYLR7 ag = -0.6 | NPYLR7 ag max-min = -5.3

> Cc1nc2sc(C)c(C)n2c(=O)c1NC(=O)c1ccccc1C(F)(F)F
  NPYLR7 ag = 19.4 | NPYLR7 ag max-min = 12.0

(further entries)
| Compound | NPYLR7 ag | NPYLR7 ag max-min |
| --- | --- | --- |
| CCCCN(C(=O)Nc1ccc(OC)cc1)C(CC)c1nc2ccccc2c(=O)n1-c1ccccc1OC (stereo not given) | 10.4 | 12.0 |
| CC(=NC(C)C)C1C(=O)CCC1=O | 6.1 | 4.1 |
| CCc1ccc(CNC(=O)NC2CCOc3ccccc32)s1 (stereo not given) | -0.1 | -2.6 |
| Cc1cc(C(=O)CSc2ncnc3sccc23)c(C)n1-c1ncn[nH]1 | -1.0 | 1.2 |
| CNCCCC(=O)O | -4.0 | -4.4 |
| COc1ccc(F)c(CN2CCCC3(CCN(C(=O)CCCn4cncn4)C3)C2)c1 (stereo not given) | 23.3 | 14.8 |
| CCc1nc(SCC(=O)N2CCc3c(nc(C)nc3N(C)C)C2)n[nH]1 | 0.0 | -5.4 |
| CCN1C(=O)C2(NNc3ccccc3O2)c2ccccc21 (stereo not given) | 5.9 | 3.9 |
| CCc1ccc(NC(=O)N2CCN(c3nc(-c4ccc(Cl)cc4)nc(C)c3C)CC2)cc1 | 18.0 | 26.0 |
| COc1ccc(F)cc1C(=O)C1CCCN(CCn2c(=O)cc(C)[nH]c2=O)C1 (stereo not given) | 4.9 | 3.8 |
| CN1CCN(C(=O)CC2CSc3nccc(=O)n32)CC1 (stereo not given) | 0.7 | -1.1 |
| CCn1nc(C)c(NC(=O)CN2CC[C@H](CO)[C@@H](O)C2)c1C | 19.9 | 17.5 |
| Cc1ccc(CC(=O)N2CCC3(CC2)NC(=O)c2cc(C)ccc2N3C)cc1 | -7.8 | -9.3 |
| Cc1cccc(C)c1Nc1c(-c2ccccc2)nc2cccc(C)n12 | 2.5&-5.0 | 11.9&2.4 |
| CC1(C)CC(=O)C(C(O)c2cccc([N+](=O)[O-])c2)C(C)(C)N1 (stereo not given) | 11.2 | 6.2 |
| O=C(Cn1cnc2c(nnn2-c2ccccc2)c1=O)c1ccccc1 | -1.1 | 3.1 |
| CN(C(=O)CC1CCCC1)C1CCCC1 | 20.5 | 10.4 |
| O=C(Cn1cnc([N+](=O)[O-])n1)Nc1cc(Oc2cccnc2)cc([N+](=O)[O-])c1 | -2.4 | -6.4 |
| O=c1c(S(=O)(=O)c2ccccc2)c[nH]c2cc3c(cc12)OCO3 | 8.1 | 8.3 |
| CC(C)(C)c1nnc(NC2CCCC2)[nH]c1=O | 8.4 | 3.6 |

4 of these compounds in a different format.
COc1ccc(S(=O)(=O)N2CCCC(C)C2)cc1N1CCN(C(=O)c2ccc(Cl)c(Cl)c2)CC1 (stereo not given)
- NPYLR7 ag = 21.5
- NPYLR7 ag max-min = 14.1
COc1ccc(CC2CN(C(=O)CCc3ccncc3)CCO2)cc1 (stereo not given)
- NPYLR7 ag = 2.9
- NPYLR7 ag max-min = 2.6
CCCCc1ccc(-c2ccc(-n3cncc3C(=O)NCc3ccccc3Br)cc2)cc1
- NPYLR7 ag = 0.2
- NPYLR7 ag max-min = 10.2
O=C(CC(c1ccc(Cl)c(Cl)c1)c1c[nH]c2ccccc12)NCCc1ccc(Cl)cc1Cl (stereo not given)
- NPYLR7 ag = 12.0
- NPYLR7 ag max-min = 14.2

Later entries.
| Compound | NPYLR7 ag | NPYLR7 ag max-min |
| --- | --- | --- |
| c1ccc(CNn2cn[n+](Cc3ccccc3)c2)cc1 | -4.5 | -11.7 |
| Cc1nn(CC(=O)N2CCC(c3ccccc3C(=O)O)C2)c(=O)c2ccccc12 (stereo not given) | 2.7 | 1.0 |
| COCc1nc(CN2CCCCC2c2nc3ccc(F)cc3[nH]2)no1 (stereo not given) | -0.6 | -0.7 |
| CSC1CCCCC1NC(=O)NC(c1nccs1)C1CC1 (stereo not given) | 11.5 | 8.8 |

Only part of the results is shown; rates above refer to the full screens.
